procasp7 counter: activates human procaspase-7, counter-screen for procaspase-3 activators | P55210 | recombinant procaspase-7, Ac-DEVD-pNA absorbance 405 nm; D23A/D198A/D206A triple mutant, cannot self-cleave; scale: DMSO 0, 5 µM enzyme 100 | activation, % at 8.5 µM | 0.093% of 330,000 active | AID 463210;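 active = percent activation above the screen-wide mean plus 3 SD, cut at about 25% in these data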
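System: Uncleavable procaspase-7 mutant enzyme; Amount: 2 µM procaspase-7 mutant as dispensed; Schedule: 1 h compound preincubation, 2 h substrate cleavage, 25 °C; Measured by: 405 nm absorbance of p-nitroaniline; Evaluation: percent activation from buffer-corrected 0–120 min absorbance change; Control set: low DMSO alone, high DMSO plus 5 µM PC-7.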
core dimer inh: blocks dimerization of HCV core protein; TR-FRET GST/Flag-core106 dimerization, 1536-well; inhibition, % at 5 µM; 0.33% of 300,000 active; AID 1899;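 active = inhibition above the mean of all tested compounds plus 3 SD, set per screening campaign, cut at about 45% in these data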
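assay system = GST-tagged and Flag-tagged HCV core protein residues 1-106 | controls = unlabelled core106 and no-GST-core106 wells | incubation = compound-protein-antibody incubation 4 h at 22.5 °C | probe or stimulus = Eu donor and XL665 acceptor anti-tag antibodies | read-out = % inhibition based on acceptor/donor emission ratio | signal = TR-FRET 671 and 617 nm emission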
PP5 inh: inhibitors of human protein phosphatase 5 (PP5); P53041; purified PP5c, OMFP substrate fluorescence; inhibition, % at 6.7 µM; 0.18% of 320,000 active; AID 1987;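 active = inhibition above the campaign's mean inhibition across all tested compounds plus 3 SD, cut at about 9.5% in these data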;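 note: 0% = DMSO only and 100% = 100 µM cantharidin control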
Target sequence (P53041 whole entry, looked up): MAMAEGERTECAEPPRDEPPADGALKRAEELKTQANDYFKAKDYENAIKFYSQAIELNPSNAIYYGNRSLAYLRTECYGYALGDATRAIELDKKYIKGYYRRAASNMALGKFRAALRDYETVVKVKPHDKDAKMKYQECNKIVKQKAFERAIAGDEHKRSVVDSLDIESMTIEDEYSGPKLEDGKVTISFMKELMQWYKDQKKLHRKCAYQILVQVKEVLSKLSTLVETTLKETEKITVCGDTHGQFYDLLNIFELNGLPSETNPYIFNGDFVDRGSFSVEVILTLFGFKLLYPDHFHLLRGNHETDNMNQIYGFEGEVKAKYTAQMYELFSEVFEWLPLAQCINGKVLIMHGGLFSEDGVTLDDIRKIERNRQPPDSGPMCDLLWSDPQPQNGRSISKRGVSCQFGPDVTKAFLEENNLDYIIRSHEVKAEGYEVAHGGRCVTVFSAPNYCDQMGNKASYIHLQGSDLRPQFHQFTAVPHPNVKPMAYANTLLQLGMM
GRK2 inh: human GRK2 inhibition via aptamer displacement. bead flow cytometry, FAM-aptamer displacement from GRK2. P25098. inhibition of aptamer binding, % at 10 µM. AID 488847. 0.59% of 330,000 active;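 active = inhibition of aptamer binding above 40%, roughly 3 SD of noise, on plates passing a quality check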;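 note: median bead fluorescence of bound FAM aptamer so fluorescent compounds give negative values; no value below 0 was filed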
CTSL1 counter: counter-screen for PFM18AAP inhibitors: inhibitors of F. hepatica cathepsin L1. recombinant F. hepatica cathepsin L1, Z-Leu-Arg-MCA fluorescence. inhibition, % at 5.96 µM. 0.49% of 300,000 active;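 active = inhibition above the mean of all tested compounds plus 3 SD, set per screening campaign, cut at about 17% in these data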;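 note: 0% = plate median of test compound wells and 100% = 1 µM Z-Phe-Ala-diazomethylketone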
JMJD2C inh: inhibitors of human GASC-1 (JMJD2C) demethylase | 0.069% of 330,000 active | inhibition, % at 2.35 µM | Q9H3R0 | AID 2099 | GST-JMJD2C(1-420) H3K9me3 demethylation, DELFIA europium;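 active = more than half of a compound's replicate wells show inhibition beyond 50%, single wells judged on their own value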;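 note: signal counts dimethyl H3K9 product captured on neutravidin plate; 0% = median of DMSO wells and 100% = 0.3 times that DMSO median; strong numbers were not always called active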
Target sequence (Q9H3R0 1-420 limits assumed): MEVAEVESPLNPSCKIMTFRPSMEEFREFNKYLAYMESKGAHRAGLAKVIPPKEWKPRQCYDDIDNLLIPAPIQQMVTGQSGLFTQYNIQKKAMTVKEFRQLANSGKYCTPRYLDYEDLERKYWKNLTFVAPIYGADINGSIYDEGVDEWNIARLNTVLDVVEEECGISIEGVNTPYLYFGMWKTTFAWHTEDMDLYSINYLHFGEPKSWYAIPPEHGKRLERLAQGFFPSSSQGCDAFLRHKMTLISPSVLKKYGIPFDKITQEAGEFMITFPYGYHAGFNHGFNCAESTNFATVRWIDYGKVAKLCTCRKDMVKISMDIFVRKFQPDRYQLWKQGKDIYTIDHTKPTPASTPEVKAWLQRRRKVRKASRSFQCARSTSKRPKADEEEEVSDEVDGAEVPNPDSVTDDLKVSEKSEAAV
VLA-4 inh: inhibition in a human VLA-4 binding assay | inhibition, % (about 7 µM as worked out from the volumes in the protocol) | 0.2% of 330,000 active | P13612 | VLA-4 expressing cells, ligand binding flow cytometry; in the data active = inhibition above about 50%
PP1 counter: PP1-alpha (human) inhibition in PP5 counter-screen; inhibition, % at 6.7 µM; P62136; 0.9% of 320,000 active; purified PP1alpha, OMFP fluorescence;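 active = inhibition above the mean inhibition of all tested compounds plus 3 SD, computed separately for each screening campaign, cut at about 15% in these data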
An asterisk follows results filed as active; / = not tested or not shown. An excerpt (hit frequency here may not be typical).

SMILES	procasp7 counter	core dimer inh	PP5 inh	GRK2 inh	CTSL1 counter	JMJD2C inh	VLA-4 inh	PP1 counter
COC(=O)c1cccc(NC(=O)Nc2ccccc2OC)c1	-12	-4	0.9	0	4	8	-3	2
O=C(Nc1ccccn1)c1cc2cc([N+](=O)[O-])ccc2s1	6	10	-2.1	0	0	-5	12	21*
O=Cc1c(-c2ccc(Cl)cc2)oc2ccc(O)cc12	7	15	2.3	2	-2	6	-5	3
Cc1cc(C(=O)COC(=O)c2n[nH]c3ccccc23)c(C)n1C	-2	0	3.6	0	1	-7	9	-1
COC(=O)c1sccc1NC(=O)CCC1CCCC1	-10	8	1.3	2	8	8	6	1
COc1ccc(-c2nc3ccccc3o2)cc1OC	9	12	-2.7	7	4	-3	13	-1
COc1ccc(Cl)cc1C(=O)OCC(=O)NC(=O)c1cccn1C	-4	1	-1.0	0	-7	20	-2	-1
CC(=O)c1cccc(NC(=O)CSc2ncc(C(=O)Nc3ccccc3)c(=O)n2C)c1	-1	-1	-0.6	0	-1	-4	19	-4
O=C(Nc1ccccc1)c1nc2ccccc2s1	0	-4	1.5	4	-10	10	33	4
O=C(COc1ccc(F)cc1Br)N1CCc2ccccc21	2	3	-1.0	0	-3	5	0	0
O=[N+]([O-])c1cccc(-c2cn3ccccc3n2)c1	12	0	4.4	2	0	-2	6	-2
CCO/C=C1/C(=O)N(C)C(=O)c2cc(OC)ccc21	7	7	-0.4	0	12	-10	12	-3
O=C(Nc1ccncc1)Nc1ccccc1Cl	6	9	0.5	3	-1	1	-4	2
COc1ccc2oc3ccccc3c(=O)c2c1	-7	-13	2.5	/	-2	1	/	2
Cc1nc(-c2ccc(NC(=O)c3ccco3)cc2)cs1	3	5	3.9	0	1	-4	-2	2
Cn1c(-c2ccccc2F)cc2onc(-c3ccccc3)c2c1=O	1	11	2.4	0	6	3	16	1
CC(=O)NCCNC(=O)c1ccc(CSc2nc3ccccc3s2)cc1	9	3	2.7	0	-8	-2	2	-4
Cc1cccc(C(=O)OCC(=O)c2ccc3c(c2)OCO3)c1O	-3	10	3.2	0	2	-15	6	-1
CSc1nc2ccc(NC(=O)COc3ccccc3F)cc2s1	-4	/	/	3	/	2	16	/
COc1ccc(C)cc1NC(=O)Nc1ccc2c(c1)CCC2	13	5	6.2	1	1	12	4	-7
O=c1oc2ccccc2cc1-c1cn2ccccc2n1	-9	-12	0.8	1	1	-21	-2	10
CCOc1ccc(NC(=O)Nc2cc(C)ccc2F)cc1	-8	-4	-0.4	6	2	-1	2	-3
Cc1c(NC(=O)c2ccc(Br)o2)cccc1C(=O)O	5	-5	-0.3	2	-4	-23	/	-4
O=C1O[C@@H]([C@H](O)CO)C(O)=C1O	-4	16	-5.3	0	-4	-23	-10	-2
COCCCN1C(=O)c2ccc(C(=O)Nc3cccc(OC)c3)cc2C1=O	8	-3	0.9	0	2	-3	10	-4
COc1ccccc1N1C(=O)c2ccc(C(=O)Nc3ccc(F)cc3)cc2C1=O	5	3	2.9	0	5	7	-1	-1
COc1cc(O)oc1C=Nc1ccc(C(F)(F)F)cc1	-11	-1	0.4	4	2	-6	0	6
Cc1nn(-c2ccccc2)c(C)c1C(=O)OCC(=O)Nc1ccccc1C(F)(F)F	17	/	2.9	2	/	/	7	-1
O=C(CSc1nc2ccccc2s1)c1ccc(O)cc1O	6	4	2.8	4	0	-13	0	3
Cc1nc(-c2ccc(C(=O)Nc3ccccc3F)cc2)cs1	12	6	-0.3	0	-1	-18	12	-5
COC(=O)c1sccc1NC(=O)Nc1ccc(F)cc1F	-12	-16	-0.9	0	1	4	-1	0
COc1ccccc1CNC(=O)CSc1ncc(C(=O)Nc2ccccc2)c(=O)n1C	-1	-1	-1.4	2	-9	-8	10	-7
COc1cccc(NC(=O)Nc2cc(C)ccc2F)c1	11	1	3.1	0	-1	21	14	4
O=C(/C=C/Nc1cccc([N+](=O)[O-])c1)c1ccco1	-7	2	0.7	2	8	48	14	-5
Cc1ccc2nc(NC(=O)c3ccc4c(c3)OCO4)sc2c1	0	1	-0.3	0	3	14	-20	4
COc1ccc(NC(=O)c2ccc(Br)o2)cc1	-2	2	0.8	1	-4	9	-1	0
O=C(CSCc1ccccc1)N1CCc2ccccc21	-1	0	0.6	0	-1	-19	-11	3
CC(=O)Nc1ccc(NC(=O)CSc2ncc(C(=O)Nc3ccc(F)cc3)c(=O)n2C)cc1	10	2	0.6	2	0	-5	2	3
Cc1cc(C)cc(NC(=O)Nc2ccc(S(=O)(=O)Nc3cc(C)on3)cc2)c1	10	11	2.3	2	-6	-11	-10	-1
Cn1c(SCC(=O)NCc2ccc(F)cc2)ncc(C(=O)Nc2ccccc2)c1=O	5	-1	-0.8	0	-4	-3	43	-4
Cc1nn(-c2ccccc2)c(C)c1C(=O)OCC(=O)Nc1ccccc1F	0	/	2.5	0	/	/	8	-6
CC(C)c1ccc(NC(=O)c2cccc(Br)c2)cc1	2	-2	5.7	1	-6	2	12	1
c1ccc(-c2ccc3ccccc3n2)cc1	-8	4	-1.5	0	13	-9	-3	3
COc1ccc(-c2noc(-c3ccc(C)cc3)n2)cc1	-3	1	0.2	2	0	6	3	-9
COc1cc(OC)cc(-c2cc3ccccc3c(=O)o2)c1	-2	/	/	0	/	-5	-39	/
CCOc1ccc2nc(SCC(=O)NCC3CCCO3)c(C#N)cc2c1 (stereo unspecified)	-8	-5	-0.1	0	3	2	7	-3
CCc1ccccc1NC(=O)c1ccc(-c2csc(C)n2)cc1	1	-1	4.1	0	0	-2	3	0
Cc1ccc(-c2cn3cc([N+](=O)[O-])ccc3n2)cc1	-12	2	-0.3	0	3	16	9	0
O=C(CSc1ccccc1)N1CCc2ccccc21	-7	10	5.8	0	1	-5	9	-2
O=C(COC(=O)c1ccccc1[N+](=O)[O-])c1ccc2c(c1)OCO2	9	-5	1.1	2	-6	-3	-3	-5
O=C1O[C@H]([C@@H](O)CO)C(O)=C1O	-4	14	-1.5	1	-4	/	1	0
COC(=O)c1sccc1NC(=O)Nc1ccc(F)cc1	3	-13	4.0	0	-2	3	-19	-3
O=C(COC(=O)c1ccc(O)cc1O)c1ccc2c(c1)OCCO2	4	/	/	44*	/	-10	-8	/
Cc1c(CCO)c(=O)[nH]n1C(=O)c1ccc(F)cc1	2	3	2.2	0	-5	5	-4	-6
Cc1cc(C(=O)COC(=O)c2ccc(F)cc2)c(C)n1C	-3	/	/	0	/	2	4	/
O=C(Nc1ccc(-c2nc3ccccc3s2)c(O)c1)C1=COCCO1	4	-16	-0.6	26	9	4	-17	-2
COc1ccc(-c2cc3ncccc3cn2)cc1	10	/	-0.7	0	/	-2	3	-1
O=C(Nc1ccc(Br)cc1)Nc1ccccc1F	-5	-1	3.9	5	-1	15	7	-4
COCCn1c(C)cc(C(=O)COC(=O)c2cccc(O)c2)c1C	8	3	-1.3	0	-2	2	7	-1
O=C(c1cccs1)N(C(=O)c1cccs1)c1ccc(Br)cn1	7	10	0.9	0	-4	13	8	8

(next part)
SMILES	procasp7 counter	core dimer inh	PP5 inh	GRK2 inh	CTSL1 counter	JMJD2C inh	VLA-4 inh	PP1 counter
Cn1nnnc1SCc1nc2scc(-c3ccccc3)c2c(=O)[nH]1	4	8	-0.6	3	-4	-2	9	0
CCOC(=O)c1sc(NC(=O)c2ccc(Br)o2)cc1C	1	6	1.9	3	6	-2	6	-1
Cn1c(SCC(=O)NCCc2ccccc2)ncc(C(=O)Nc2ccccc2)c1=O	-9	6	-2.7	0	3	2	19	-3
O=C(Nc1ccc2c(c1)Cc1ccccc1-2)c1ccc(Br)o1	4	-2	-0.1	3	1	3	2	0
COc1ccc(CCNC(=O)CSc2ncc(C(=O)Nc3ccccc3)c(=O)n2C)cc1	0	-4	-2.6	0	1	2	19	-4
Cc1occc1-c1nc(-c2ccccn2)no1	1	-5	-0.2	0	-3	1	2	-1
COc1cc(OC)cc(C(=O)NC(=S)Nc2cccnc2)c1	7	-2	-0.8	0	-1	0	5	2
O=C(c1ccc(Br)cc1)c1coc2ccc(O)cc12	1	10	2.9	2	0	8	-4	-1
CCc1sc(C(=O)Nc2ccc3c(c2)OCCO3)cc1Br	-5	6	3.5	2	2	-1	10	0
O=C(COC(=O)c1cccnc1Cl)c1ccc(F)cc1	8	-1	0.5	2	4	7	0	-5
COc1ccccc1NC(=O)Nc1ccc2c(c1)nc(C)n2C	8	-2	-0.8	0	3	/	4	-3
Cc1ccc(C(=O)Nc2nc3ccc(Cl)cc3s2)o1	1	-6	0.3	0	-3	-2	9	0
COc1ccc(-c2cc3cc(F)ccc3cn2)cc1	12	/	/	7	/	15	7	/
Cc1cc(C)cc(Nc2ncnc3nc[nH]c23)c1	5	-5	0.3	0	0	5	8	1
O=C(Nc1ccc(Cl)cn1)Nc1ccccc1Cl	-2	-11	1.5	0	-1	-15	2	1
COc1ccc(/C=N/NC(=O)c2nonc2C)cc1	0	3	-0.9	0	0	2	6	-11
Cc1cc(C)c(C(N)=O)c(Nc2cccc3ccccc23)n1	-6	-3	2.0	1	-2	10	13	-1

Another view of part of the listing above.
O=C(Nc1ccc(Cl)cn1)Nc1ccccc1Cl
- procasp7 counter: -2
- core dimer inh: -11
- PP5 inh: 1.5
- GRK2 inh: 0
- CTSL1 counter: -1
- JMJD2C inh: -15
- VLA-4 inh: 2
- PP1 counter: 1
COc1ccc(/C=N/NC(=O)c2nonc2C)cc1
- procasp7 counter: 0
- core dimer inh: 3
- PP5 inh: -0.9
- GRK2 inh: 0
- CTSL1 counter: 0
- JMJD2C inh: 2
- VLA-4 inh: 6
- PP1 counter: -11

Screening results: PubChem, several laboratories
